D2 ag = agonists of human D2 dopamine receptor (beta-arrestin) | DiscoveRx PathHunter D2 beta-arrestin, luminescence, 90 min; 100% = 57 uM dopamine signal | P14416 | AID 624465 | hit rate 0.084% among 360,000 | activation, % (test concentration not listed); in the data active = activation above about 40%; inconclusive = about 15% to 40%; inactive = below about 15%; note: compound concentration not given in the record; the text of the record calls up to 30% inactive
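DiscoveRx PathHunter D2 beta-arrestin cells (2,100/well) attached overnight, then compound-stimulated 90 min at 37 C in HBSS/10 mM HEPES/0.1% Tween-20 buffer; beta-galactosidase complementation read by luminescence after 1 h at ambient temperature. Dopamine 57 uM final (EC100) as control.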
PINK1 modulator = modulators of PINK1 expression; PINK1 immunofluorescence, high-content cytometry, 24 h; Potency, µM (highest dose often 76.6 µM), without a hit: at the top dose activation (PINK1 increase), actives largely listed as activators; hit rate 0.2% among 410,000; AID 624263; active = well fitted activation curve with a large enough effect; inconclusive = small, poorly fitted or top-dose-only effect; inactive = flat fitted curve, though single readings scatter; cell line not stated here;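 note: potency is the fitted concentration of half-maximal effect; % of control where 0% means no effect; nearly all actives have a fitted effect of over 65% in size; a mitochondrial uncoupler was the plate control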
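Stable cell line, 250 cells/well, 12 h attachment; compounds pinned at 5 concentrations, 24 h; CCCP control. Fixed with nuclear dye, primary antibodies 12 h at 10 degrees C, secondary plus cell stain; laser-scanning cytometer read.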
Six1-Eya2 blk = Six1/Eya2 interaction inhibition; Q15475+O00167; AlphaScreen GST-Six1/His-Eya2 binding, biochemical; stronger effect = lower value; control for the full effect not named in the record; hit rate 0.56% among 360,000; activity change, % (test concentration not listed); in the data active = activity change below about -65%; inconclusive = about -30% to -65%; inactive = above about -30%; note: % is set by controls: 0 for no effect and ±100 for the full control effect; compound concentration not given in the record
Target sequence (O00167 whole entry, looked up): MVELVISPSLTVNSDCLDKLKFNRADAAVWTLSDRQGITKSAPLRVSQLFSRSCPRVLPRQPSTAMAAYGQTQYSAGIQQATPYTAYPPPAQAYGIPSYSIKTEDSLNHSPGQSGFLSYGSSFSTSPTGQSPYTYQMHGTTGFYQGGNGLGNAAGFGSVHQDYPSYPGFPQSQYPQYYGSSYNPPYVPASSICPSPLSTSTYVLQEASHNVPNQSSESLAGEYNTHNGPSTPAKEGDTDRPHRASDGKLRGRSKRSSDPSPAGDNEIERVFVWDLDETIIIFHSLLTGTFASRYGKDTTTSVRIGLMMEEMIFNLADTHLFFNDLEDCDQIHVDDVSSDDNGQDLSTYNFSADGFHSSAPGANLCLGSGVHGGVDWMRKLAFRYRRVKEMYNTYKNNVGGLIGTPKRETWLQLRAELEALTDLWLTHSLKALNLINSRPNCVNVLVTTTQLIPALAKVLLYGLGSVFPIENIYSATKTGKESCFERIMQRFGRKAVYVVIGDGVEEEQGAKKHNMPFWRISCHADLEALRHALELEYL
Target sequence (Q15475 whole entry, looked up): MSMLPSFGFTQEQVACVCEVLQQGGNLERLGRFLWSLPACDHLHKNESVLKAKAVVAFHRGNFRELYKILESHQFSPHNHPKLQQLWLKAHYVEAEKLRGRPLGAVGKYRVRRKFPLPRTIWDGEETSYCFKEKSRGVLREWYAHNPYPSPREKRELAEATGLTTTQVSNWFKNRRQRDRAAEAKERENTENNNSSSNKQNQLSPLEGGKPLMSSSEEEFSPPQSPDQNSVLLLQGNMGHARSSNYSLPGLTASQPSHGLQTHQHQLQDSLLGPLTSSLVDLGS
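Compounds are tested against tagged Six1 and Eya2 proteins bridged by glutathione donor and nickel acceptor beads; after a one-hour incubation at 37 °C without light, AlphaScreen emission is recorded.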
CtBP-E1A inh = CtBP/E1A binding inhibition; activity change, % (no concentration beside the values); hit rate 0.49% among 340,000; AID 651724; AlphaScreen GST-E1A/His-CtBP binding, 1536-well; stronger effect = lower value; control for the full effect not named in the record; in the data active means activity change below about -65%; inconclusive means about -30% to -65%; inactive means above about -30%; note: % is set by controls: 0 for no effect and ±100 for the full control effect; compound concentration not given in the record
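Homogeneous bead-based format: GST-tagged E1A captured on glutathione donor beads, His-tagged CtBP on nickel acceptor beads; compounds precede bead addition by 2 h at 37 °C.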
TRPML1 inh = inhibitors of human TRPML1 channel; AID 624415; TRPML1-inducible cells, Ca2+ dye fluorescence, FDSS; stronger effect = lower value; inhibition of EC80 agonist-evoked calcium signal; Q9GZU1; activity change, negative = inhibition, % (test concentration not listed); hit rate 0.02% among 390,000; in the data active means activity change below about -50%; inconclusive means about -30% to -50%; inactive means above about -30%;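 note: stimulus is agonist 54-4 at its EC80 concentration; % is set by controls: 0 for no effect and ±100 for the full control effect; compound concentration not given in the record; the text of the record puts the active cut at -80%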
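TRPML1-DL cells, Tet-induced overnight (~16 h, 37 °C) at 1,500 cells/well, were loaded with Ca8 no-wash dye plus quencher for 45-90 min at room temperature. Compounds were pinned during FDSS kinetic reading; agonist 54-4 at EC80 (4 uM final) then added.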
TRPML1 ag = agonists of human TRPML1 channel; activation, % (test concentration not listed); Q9GZU1; TRPML1-expressing cells, Ca2+ dye fluorescence, FDSS; host cell line not named in the record; reference of the full effect not given here; AID 624414; hit rate 0.12% among 410,000; in the data active = activation above about 50%; inconclusive = about 30% to 50%; inactive = below about 30%; note: 0% is about no effect; the text of the record puts the active cut at 80%
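Cells: TRPML1-DL, 1X Tet inducer, ~16 h at 37 degrees C/5% CO2. Dye: ABD Ca8 no-wash + quencher, 45-90 min RT. Read: 10 s baseline, compound add, 110 s agonist phase; 54-4 EC80 (4uM final), 110 s antagonist phase.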
Numbers without * were called inactive; ? = inconclusive; . = no result given.

SMILES | D2 ag | PINK1 modulator | Six1-Eya2 blk | CtBP-E1A inh | TRPML1 inh | TRPML1 ag
CC(=O)N1CCOc2ccc(S(=O)(=O)NC[C@H]3O[C@@H](n4ccc(=O)[nH]c4=O)[C@H](O)[C@@H]3O)cc21 | -0.2 | 0.6% | 5.7 | 4.0 | 13.4 | -0.3
CS(=O)(=O)N(CC(=O)NCc1ccc2c(c1)OCO2)C1CCCCC1 | 3.8 | -1.4% | 0.0 | 9.1 | 23.8 | 0.2
CCOC(=O)N1CCN(C(=O)CSc2nc(=O)n3cc(C)ccc3n2)CC1 | 7.5 | -2.4% | 7.4 | -21.0 | -10.4 | 1.1
c1ccc2c(c1)oc1c(-c3cccc4nccn34)cccc12 | -4.4 | 3.3% | 11.5 | 16.1 | 20.2 | -0.3
Cc1cc(Nc2ccc(Br)c(C)c2)n2nc(-c3ccco3)nc2n1 | . | -0.1% | . | . | 4.3 | 1.3
COc1ccc(NC(=O)CSc2ccc3nnc(-c4ccccn4)n3n2)cc1OC | -0.3 | -1.1% | -20.1 | -27.6 | 1.2 | 0.1
CC(C)(C)N1CSC(=S)N(Cc2ccccc2)C1 | -2.2 | 3.9% | 2.1 | -0.2 | -7.0 | -0.4
Cc1cnc(C(=O)OCC(=O)NCCCc2ccccc2)cn1 | -2.0 | 12.8% | 6.1 | 7.5 | -9.0 | -0.2
S=C(Nc1ccc2snnc2c1)N1CCN(c2ccccn2)CC1 | -5.2 | 1.4% | 0.0 | 0.0 | -6.6 | -1.1
Nc1nc2c(ncn2[C@@H]2O[C@H](CNCc3ccc(Oc4cc(-n5cccn5)ncn4)cc3)[C@@H](O)[C@H]2O)c(=O)[nH]1 | -7.3 | 1.5% | -3.8 | 1.2 | 23.3 | 0.0
C[C@@]12C(=O)N(CC3CC3)CC(=O)N1[C@H](C1CC1)[C@@H]1C(=O)N(c3ccccc3)C(=O)[C@@H]12 | -0.9 | 1.3% | 5.2 | 14.2 | -2.1 | 0.2
Cn1c(NC(=O)c2ccc(F)cc2)nc2ccccc21 | -4.3 | 2.1% | -6.3 | 5.0 | -2.9 | 0.5
COC(=O)c1cc(-c2ccccc2)nc2nc(SC)[nH]c(=O)c12 | -4.9 | 1.4% | -7.1 | -2.5 | . | .
COc1ccccc1N1CCN(C(CNS(C)(=O)=O)c2cccnc2)CC1 (stereo not given) | -1.6 | 2.3% | 0.9 | . | -13.7 | 0.9
COc1cc(OC)c(S(=O)(=O)N2CCN(C(=O)c3ccco3)CC2)cc1NC(C)=O | -4.2 | -0.9% | -3.5 | 8.3 | -4.1 | 0.1
Cn1c(CSCCOc2ccccc2)n[nH]c1=S | 8.4 | -0.7% | 6.2 | 6.7 | 14.8 | -0.2
Cc1onc(-c2c(F)cccc2Cl)c1C(=O)OCC(=O)Nc1c(C)n(C)n(-c2ccccc2)c1=O | -3.6 | 1.0% | 4.0 | 12.8 | -11.9 | -0.5
CC(C)NC(=S)N/N=C/c1sc(N2CCCCC2)nc1-c1cccs1 | -2.9 | -0.2% | -2.4 | -2.1 | 3.6 | 1.0
CCOC(=O)c1cc(-c2ccccc2)sc1NC(=O)C(C)OC(=O)c1cccnc1OCC (stereo not given) | -6.8 | -0.7% | 5.7 | -0.4 | 8.4 | 0.0
CCc1ccc(OCC(=O)NN2Cc3ccccc3C2=N)cc1 | -4.0 | -1.7% | 1.0 | -1.7 | 24.0 | 1.7
Cc1oc(CN2CCOCC2)cc1C(=O)O | -4.2 | -0.2% | 6.4 | 0.9 | 0.6 | 1.0
CCOc1ccc(N2C(=O)CC(N3CCN(c4ccc(Cl)cc4)CC3)C2=O)cc1 (stereo not given) | 0.3 | -0.6% | -5.3 | . | 2.4 | -0.4
Oc1ccccc1-c1n[nH]c(=S)n1Cc1ccco1 | -0.2 | ? | -12.2 | -7.3 | 1.5 | 2.2
CCC1CCCCN1C(=O)COc1ccc(N(C)S(=O)(=O)c2ccc(C)cc2)cc1 (stereo not given) | 1.7 | -0.7% | -5.0 | -4.9 | 56.6 | 1.7
Cc1cc(C(=O)Nc2c(C)nn(Cc3ccc(F)cc3)c2C)on1 | -0.5 | 4.9% | 6.0 | -7.8 | -8.7 | -0.4
CCOC(=O)N1CCN(C(=O)c2oc3ccc(S(=O)(=O)N4CCOCC4)cc3c2C)CC1 | -0.7 | -1.3% | -1.4 | 9.7 | -7.9 | -1.1
Cc1cc(C)n2nc(SCc3cccc(F)c3)nc2n1 | 1.0 | 1.9% | -3.5 | 7.3 | -10.1 | -0.2
Cc1ccc(N(C(=O)Cn2nnc(-c3ccccc3)n2)C(C(=O)NC2CCCCC2)c2ccccn2)cc1C (stereo not given) | -4.5 | 9.2% | 4.4 | -4.7 | 2.2 | 1.6
CC(=O)Nc1ccc2c(c1)ncn2-c1ccccc1 | -1.2 | 1.1% | -1.1 | 6.3 | -7.0 | -0.1
O=[N+]([O-])c1ccc(CN2CCN(c3ccccc3Cl)CC2)o1 | -4.4 | 1.1% | 0.1 | 4.7 | -10.2 | -0.4
COc1ccc(OC)c(NC(=O)c2nnn(Cc3ccc(Br)cc3F)c2N)c1 | -5.4 | 4.6% | -14.4 | -8.7 | 37.8 | 3.6
C#CCOCCOCCOCCNc1nc(N2CCN(C(=O)CCCCCCCCCCNC(=O)[C@H](CCCCN)n3cc(C)nn3)CC2)nc(N2CCN(C(=O)CCCCCCCCCCNC(=O)[C@H](CO)n3cc(CCCSC)nn3)CC2)n1 | 1.7 | -1.3% | -9.5 | . | -9.0 | 0.7
COc1ccc(-c2noc(CCC(=O)NC3CCN(Cc4ccccc4)CC3)n2)cc1 | 0.7 | 0.1% | 1.3 | -15.1 | 4.8 | -0.5
CSCCC(NS(=O)(=O)c1ccc(Cl)cc1)C(=O)OCc1c(Cl)cccc1Cl (stereo not given) | 4.8 | 39.8µM* | -2.2 | -5.6 | 68.2 | 3.3
O=C(CC1C(=O)NCCN1Cc1ccc(Cl)c(F)c1)NC1CCC1 (stereo not given) | -1.2 | 0.2% | 0.5 | 2.3 | -7.8 | 0.2
O=S(=O)(c1ccc2c(c1)CCCN2)N1CCCC1 | -5.6 | 0.4% | 0.9 | 0.2 | -10.3 | 0.3
O=C(C1CC1)N1CCN=C1SCc1cccc(F)c1 | -2.5 | -0.9% | 0.7 | -2.9 | -0.3 | 0.0
N#Cc1ccsc1NC(=O)CN1CCN(c2ccccc2)CC1 | 13.0 | -0.4% | -4.0 | -1.4 | -5.0 | -0.9
O=C(CN1CCN(S(=O)(=O)c2ccc(Cl)cc2)CC1)N1CCCC1 | -2.1 | 1.4% | 6.1 | 5.5 | -9.5 | 0.2
COc1ccc(CNC(=O)C2CCCN(S(=O)(=O)c3ccc4c(ccn4C)c3)C2)c(OC)c1 (stereo not given) | . | 0.6% | . | . | 14.8 | 0.6
CN(O)/C=c1/ccc2c(n1)C(=O)C=CC=2 | -1.7 | 0.9% | -92.5* | -96.4* | -1.4 | -1.2
CCn1c(-c2cccc(Cl)c2)n[nH]c1=S | -3.6 | 0.0% | 3.8 | 2.6 | 20.4 | -0.3
COc1ccc2c(c1)CO[C@@]21O[C@H](CCO)C[C@H](O)[C@H]1O | -5.2 | 3.0% | 5.2 | 5.7 | 9.2 | -0.1
C=CCn1c(COc2ccc(OC)cc2)nc2ccccc21 | 1.0 | 1.0% | 1.7 | . | . | .
COc1cccc(OC)c1C(=O)Nc1ccc2c(c1)Cc1ccccc1-2 | -3.7 | 8.9% | -11.5 | -4.6 | -1.9 | -0.5

Ordered by number of heavy atoms (lowest first): part of the list above
SMILES | D2 ag | PINK1 modulator | Six1-Eya2 blk | CtBP-E1A inh | TRPML1 inh | TRPML1 ag
O=S(=O)(c1ccc2c(c1)CCCN2)N1CCCC1 | -5.6 | 0.4% | 0.9 | 0.2 | -10.3 | 0.3
O=C(C1CC1)N1CCN=C1SCc1cccc(F)c1 | -2.5 | -0.9% | 0.7 | -2.9 | -0.3 | 0.0
COc1ccc2c(c1)CO[C@@]21O[C@H](CCO)C[C@H](O)[C@H]1O | -5.2 | 3.0% | 5.2 | 5.7 | 9.2 | -0.1
COc1cccc(OC)c1C(=O)Nc1ccc2c(c1)Cc1ccccc1-2 | -3.7 | 8.9% | -11.5 | -4.6 | -1.9 | -0.5
CSCCC(NS(=O)(=O)c1ccc(Cl)cc1)C(=O)OCc1c(Cl)cccc1Cl (stereo not given) | 4.8 | 39.8µM* | -2.2 | -5.6 | 68.2 | 3.3

(next part)
SMILES | D2 ag | PINK1 modulator | Six1-Eya2 blk | CtBP-E1A inh | TRPML1 inh | TRPML1 ag
COc1ccc(CCN2C(=O)C3C4CCC(C4=C(C)C)C3C2=O)cc1OC (stereo not given) | -0.2 | -1.2% | 2.8 | 1.0 | 8.0 | 0.2
COc1cc(OC)cc(C(=O)NCC(=O)OCC(=O)Nc2ncc(Cl)cc2Cl)c1 | -0.2 | 0.9% | 0.0 | -16.6 | 2.3 | -1.4
Cc1cccc(-c2nnc(C(C)Nc3cccc(C(=O)NC4CC4)c3)o2)c1 (stereo not given) | 0.4 | -0.6% | -7.3 | -1.1 | 9.1 | -1.0
COC(=O)c1sccc1NC(=O)Nc1ccc(F)cc1 | -1.4 | 0.3% | 0.2 | 0.6 | 7.2 | 0.0
Cc1cc(-n2c(C)cc(C(=O)CSc3ccccn3)c2C)no1 | 0.8 | 3.1% | -2.5 | -9.2 | -2.5 | -0.3
COc1ccc(/C=N/NC(=O)c2nnn(-c3nonc3N)c2-c2cccc(OC)c2)cc1 | 1.9 | -1.5% | -3.6 | 0.6 | 33.3 | 0.1
O=C(c1ccccc1)c1coc2ccc(O)c(CN3CCOCC3)c12 | -0.7 | -0.3% | -6.5 | 2.0 | -7.4 | -1.2
Cc1cc(C)cc(C(=O)NCC(=O)N2CCC3(CC2)NCCc2[nH]cnc23)c1 | 4.7 | 1.5% | 1.6 | 0.8 | 23.1 | 1.5
COc1cc2c(c3oc(-c4ccccc4)cc(=O)c13)C=CC(C)(C)O2 | 3.8 | 0.2% | 1.6 | 1.4 | . | .
CC(=O)c1cccc(NC(=S)NC(=O)c2ccccc2C)c1 | -3.2 | 0.3% | -4.3 | -1.7 | 4.9 | -0.9
CC(C)CNS(=O)(=O)c1ccc(S(=O)(=O)N2CCC(N3CCCCC3)CC2)cc1 | -4.1 | -0.3% | -0.6 | 0.1 | -3.7 | -0.1
CCOC(=O)C1C(=O)C=C(/C=C/c2ccc(N(C)C)cc2)CC1c1ccccc1 (stereo not given) | 0.6 | ? | 17.1 | 21.5 | -2.2 | ?
Cn1c(=O)[nH]c2sc3c(c2c1=O)CC(C)(C)OC3 | -2.4 | 1.4% | 2.5 | 2.0 | 1.9 | 3.5
COc1ccc(Nc2c3c(nc4ccc(NC(=O)c5cc(Cl)ccc5OC)cc24)CCCC3)cc1OC | . | 4.5% | . | . | -5.0 | -0.2
O=c1cc(-c2ccc3c(c2)OCO3)oc2ccccc12 | -0.7 | . | 9.1 | 9.8 | -6.0 | 0.6
CC(C)Oc1ccc(NC(N)=O)cc1 | 2.6 | -1.4% | -0.2 | 2.9 | 5.6 | 3.7

Assay outcomes (PubChem BioAssay)
